Six1-Eya2 inh = qHTS Assay for Inhibitors of the Six1/Eya2 Interaction; 360,000 compounds, 0.56% hits; Homeobox protein SIX1 (Homo sapiens) + Protein phosphatase EYA2 (Homo sapiens), …; activity change, % (no concentration beside the values); AlphaScreen GST-Six1/His-Eya2 binding, biochemical; hits give low values; control for the full effect not named in the record; in the data active = activity change below about -65%; inconclusive = about -30% to -65%; inactive = above about -30%; note: % is set by controls: 0 for no effect and ±100 for the full control effect
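Compounds are tested against tagged Six1 and Eya2 proteins bridged by glutathione donor and nickel acceptor beads; after a one-hour incubation at 37 °C without light, AlphaScreen emission is recorded.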
TRPML1 ag = qHTS for Agonists of the Human Mucolipin Transient Receptor Potential 1 (TRPML1) | Mucolipin-1 (Homo sapiens), Q9GZU1 | TRPML1-expressing cells, Ca2+ dye fluorescence, FDSS; host cell line not named in the record; reference of the full effect not given here | activation, % (no concentration beside the values) | 410,000 compounds, 0.12% hits | AID 624414, 2012; in the data active = activation above about 50%; inconclusive = about 30% to 50%; inactive = below about 30%; note: 0% is about no effect; the text of the record puts the active cut at 80%
Target sequence (Q9GZU1 whole entry, looked up): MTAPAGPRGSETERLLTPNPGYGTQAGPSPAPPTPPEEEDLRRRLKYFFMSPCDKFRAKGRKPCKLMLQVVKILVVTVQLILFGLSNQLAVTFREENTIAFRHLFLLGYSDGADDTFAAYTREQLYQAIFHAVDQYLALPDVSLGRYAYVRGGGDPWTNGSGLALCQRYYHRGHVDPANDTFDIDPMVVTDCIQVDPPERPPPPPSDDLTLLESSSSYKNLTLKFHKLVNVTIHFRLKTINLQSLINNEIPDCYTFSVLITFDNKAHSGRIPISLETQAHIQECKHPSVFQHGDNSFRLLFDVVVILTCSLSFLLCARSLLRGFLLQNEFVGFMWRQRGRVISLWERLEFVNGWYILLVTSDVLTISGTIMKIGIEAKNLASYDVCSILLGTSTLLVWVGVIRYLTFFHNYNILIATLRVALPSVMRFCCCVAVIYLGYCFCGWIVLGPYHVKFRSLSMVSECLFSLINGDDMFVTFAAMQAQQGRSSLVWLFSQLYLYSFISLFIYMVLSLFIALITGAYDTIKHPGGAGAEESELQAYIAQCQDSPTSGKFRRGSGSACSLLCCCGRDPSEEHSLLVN
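Cells: TRPML1-DL, 1X Tet inducer, ~16 h at 37 degrees C/5% CO2. Dye: ABD Ca8 no-wash + quencher, 45-90 min RT. Read: 10 s baseline, compound add, 110 s agonist phase; 54-4 EC80 (4uM final), 110 s antagonist phase.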
CtBP-E1A blk = qHTS Assay for Inhibitors of the CtBP/E1A Interaction | activity change, % (concentration not given with the values) | CtBP / adenovirus E1A interaction (AlphaScreen) | 340,000 compounds, 0.49% hits | AlphaScreen GST-E1A/His-CtBP binding, 1536-well; hits give low values; control for the full effect not named in the record; in the data active means activity change below about -65%; inconclusive means about -30% to -65%; inactive means above about -30%; note: % is set by controls: 0 for no effect and ±100 for the full control effect
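Homogeneous bead-based format: GST-tagged E1A captured on glutathione donor beads, His-tagged CtBP on nickel acceptor beads; compounds precede bead addition by 2 h at 37 °C.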
D2 potentiator = Beta-Arrestin HTS for Positive Allosteric Modulators of the Human D2 Dopamine Receptor: Potentiators | DiscoveRx D2 beta-arrestin cells, luminescence, 90 min; 100% = 57 uM dopamine signal | 360,000 compounds, 0.23% hits | potentiation, % (test concentration not listed); active = potentiation of 50% or more; inconclusive = 30% to 50%; inactive = 30% or less;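 note: compound concentration not given in the record; tested on top of an EC20 dose of dopamine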
Target sequence (P14416 whole entry, looked up): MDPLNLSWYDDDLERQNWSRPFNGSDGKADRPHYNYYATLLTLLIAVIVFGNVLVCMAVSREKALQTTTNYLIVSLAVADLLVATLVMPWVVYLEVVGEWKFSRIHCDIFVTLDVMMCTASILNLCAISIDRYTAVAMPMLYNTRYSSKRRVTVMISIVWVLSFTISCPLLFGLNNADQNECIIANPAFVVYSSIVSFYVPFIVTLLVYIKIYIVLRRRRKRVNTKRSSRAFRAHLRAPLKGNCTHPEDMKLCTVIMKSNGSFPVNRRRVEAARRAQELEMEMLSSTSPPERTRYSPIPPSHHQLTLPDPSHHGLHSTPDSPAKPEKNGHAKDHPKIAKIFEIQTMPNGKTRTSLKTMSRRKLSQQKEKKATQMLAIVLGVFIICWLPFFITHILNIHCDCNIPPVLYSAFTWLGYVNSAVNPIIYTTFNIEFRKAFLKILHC
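PathHunter D2 cells, attached overnight at 37 deg C, received compound in DMSO plus dopamine at EC20 (50 nM final) for 90 min at 37 deg C. Beta-arrestin recruitment was read as luminescence after 1 h with detection reagent at ambient temperature.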
PINK1 modulator = A Quantitative High throughput Screen to Identify Chemical Modulators of PINK1 Expression; AID 624263, 2012; PINK1 immunofluorescence, high-content cytometry, 24 h; Potency, µM (doses to about 76.6 µM), inactives show at the highest dose activation (PINK1 increase), usual class: activators; 410,000 compounds, 0.2% hits; active = well fitted activation curve with a large enough effect; inconclusive = small, poorly fitted or top-dose-only effect; inactive = flat fitted curve, though single readings scatter; cell line not stated here;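 note: potency is the fitted concentration of half-maximal effect; % of control where 0% means no effect; nearly all actives have a fitted effect of over 65% in size; a mitochondrial uncoupler was the plate control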
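PINK1 protein, normally rapidly degraded, was detected by immunofluorescence after 24 hour compound treatment of a stable cell line. Titration data (5 concentrations) came from laser-scanning cytometry, with CCCP-treated wells as controls.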
D2 ag = Beta-Arrestin HTS for Positive Allosteric Modulators of the Human D2 Dopamine Receptor: Agonists; activation, % (concentration not given with the values); AID 624465, 2012; D(2) dopamine receptor (Homo sapiens), P14416; DiscoveRx PathHunter D2 beta-arrestin, luminescence, 90 min; 100% = 57 uM dopamine signal; 360,000 compounds, 0.084% hits; in the data active = activation above about 40%; inconclusive = about 15% to 40%; inactive = below about 15%; note: the text of the record calls up to 30% inactive
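DiscoveRx PathHunter D2 beta-arrestin cells (2,100/well) attached overnight, then compound-stimulated 90 min at 37 C in HBSS/10 mM HEPES/0.1% Tween-20 buffer; beta-galactosidase complementation read by luminescence after 1 h at ambient temperature. Dopamine 57 uM final (EC100) as control.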
* marks the source's active call; other numbers are inactive results; ? = inconclusive; . = not tested or not shown; & = joins results of further samples; [ ] = remark or other dose.

Preview, 3 compounds:
SMILES	Six1-Eya2 inh	TRPML1 ag	CtBP-E1A blk	D2 potentiator	PINK1 modulator	D2 ag
O=C(CCNC(=O)c1ccc(Br)cc1)NNC(=O)COc1ccccc1F	1	5.0	11	-12	-6.1%	-5.3
NC(=O)c1cc(S(=O)(=O)NCc2ccc(Br)cc2)cs1	2	0.0&-1.2	3	-3	-1.1%&0.7%	6.1
C=CCC[C@@H](Cc1ccc(F)cc1)C(=O)OC[C@@H](Cc1c[nH]c2ccccc12)NC(=O)[C@@H](CC=C)CC(=O)NCCO	-5	-0.7	-7	.	2.1%	2.8

The listing, repeating the preview:
SMILES	Six1-Eya2 inh	TRPML1 ag	CtBP-E1A blk	D2 potentiator	PINK1 modulator	D2 ag
O=C(CCNC(=O)c1ccc(Br)cc1)NNC(=O)COc1ccccc1F	1	5.0	11	-12	-6.1%	-5.3
NC(=O)c1cc(S(=O)(=O)NCc2ccc(Br)cc2)cs1	2	0.0&-1.2	3	-3	-1.1%&0.7%	6.1
C=CCC[C@@H](Cc1ccc(F)cc1)C(=O)OC[C@@H](Cc1c[nH]c2ccccc12)NC(=O)[C@@H](CC=C)CC(=O)NCCO	-5	-0.7	-7	.	2.1%	2.8
Cc1ccc(OS(=O)(=O)c2cn(C)c(=O)n(C)c2=O)cc1C	10	0.3	12	5	0.1%	0.5
COC(=O)C(C(=O)OC)c1ccccc1[N+](=O)[O-]	3	1.6	3	-3	-1.3%	-1.8
CC(=O)Nc1ccc(OCC(O)Cn2nc(C)c(C)c2C)cc1 (configuration not stated)	-4	-0.6	-3	-1	-1.2%	-3.8
CC(C)C[C@H](NC(=O)N1CC(=O)Nc2ccccc21)C(=O)N[C@H](Cc1ccccc1)C(=O)O	7	.	-2	-32	-0.5%	-4.3
Cc1cc(C)c2cc(CN(CCCN(C)C)C(=S)NCc3ccccc3)c(=O)[nH]c2c1	-16	-0.5	0	-23	-0.3%	-4.4
CCCn1c(N2CCOCC2)nc2c1c(=O)[nH]c(=O)n2C	2	-0.2	12	-3	-1.9%[38.3 µM]	-1.6
O=C(NCCS(=O)(=O)c1ccc(Br)cc1)c1c(F)cccc1F	3	0.0	7	0	2.2%	-2.0
COc1ccc(-c2cc3c(=O)n(CC(=O)NCCN4CCCC4)nc(C)n3n2)cc1	4	0.5	.	-10	-1.0%	-2.5
O=C(N1CCCCC1)N1CCC(c2nc3ccccc3[nH]2)CC1	2	-0.4	.	-19	-0.5%	-4.3
NC(=O)[C@@H]1CCCNc2c(I)cc([N+](=O)[O-])cc2C(=O)N[C@@H](CCC(=O)O)C(=O)N[C@@H](CO)C(=O)N1	2	-0.6	4	-4	0.4%	0.2
Cc1nc(SCC(=O)Nc2ccc(S(=O)(=O)N3CCOCC3)cc2)c2c(C)c(C)sc2n1	-23	1.6	5	-9	-0.8%	-0.9
Cc1ccc(C(=O)NN=C2CCCCCC2)s1	2	0.9	-2	-10	-0.7%	-2.2
O=C(O)CCCCCCNS(=O)(=O)c1ccccc1	3	-0.1	7	-14	.	-1.5
O=C(NC1CCCCC1)C(c1ccccc1)N(Cc1ccco1)C(=O)c1csnn1 (configuration not stated)	-3	-0.2	3	-6	-1.8%	-1.3
COc1cccc2cc(C(=O)Oc3ccc(NC(C)=O)cc3)c(=O)oc12	-17	-0.4	0	-4	2.7%	-3.7
CCOc1cc(N2CCOCC2)c(OCC)cc1NC(=O)c1cnccn1	2	-0.6	5	-15	4.6%	-1.6
O=C(C[n+]1cccc(NC(=O)c2ccccc2)c1)c1ccccc1	10	0.5	-2	-15	-1.3%	-1.6
N/C(=N\OC(=O)Nc1ccc(Cl)cc1)c1ncc(C(F)(F)F)cc1Cl	19	0.8	0	-4	3.2%	-0.5
CC(=O)NCCNS(=O)(=O)c1ccc(C)c([N+](=O)[O-])c1	5	0.6	2	4	-0.4%	-0.9
O=C(Oc1ccc(N(Cc2cccs2)C2=NS(=O)(=O)c3ccccc32)cc1)c1ccccc1	4	-0.2	8	8	3.0%[38.3 µM]	-2.2
O=Nc1c2ccc[nH]c-2c2ccc([N+](=O)[O-])cc12	-11	0.2	-4	-4	-1.1%	-2.2
COc1ccc2c(c1)C1=C(CC2)C(c2ccc(C)cc2)NC(=S)N1 (configuration not stated)	-22	2.4	-13	-5	0.6%	5.5
O=C(O)c1ccc(-c2ccccc2)[nH]1	4	-0.5	3	5	0.3%	1.2
COCCN1CC(C(=O)NCc2ncccc2C)CCC1=O (configuration not stated)	0	0.6	5	0	0.2%	-3.8
CCc1nnc(NC(=O)CSc2nc(-c3ccc(OC)cc3)ns2)s1	0	-1.3	-1	7	1.3%	-0.3
CSCC(CO)NS(=O)(=O)c1ccc(C)cc1 (configuration not stated)	2	0.9	-6	0	2.8%	1.1
COc1cc(OC)cc(C(=O)N[C@H](C(=O)Nc2nc3ccc(S(C)(=O)=O)cc3s2)C(C)C)c1	1	0.2	5	-1	1.1%	4.5
O=C(Nc1ccc(F)cc1)c1nc[nH]c1C(=O)Nc1ccc([N+](=O)[O-])cc1	-5	0.2	0	-8	3.6%	-2.0
Cc1ccc(S(=O)(=O)Oc2ccccc2/C=N/N=C(N)N)cc1	-14	-0.6	0	-13	6.5%	-3.8
Cc1ccc2c(c1)[C@@H]1CN(C)CC[C@@H]1N2S(=O)(=O)c1ccc(F)cc1	-3	-0.2	-4	-39	-1.0%	-5.1
CC(=O)N1CCN(C(=S)NC(=O)c2ccc(S(=O)(=O)N3CCOCC3)cc2)CC1	6	0.7	-1	-17	9.1%	-1.3
S=c1nc(C2COc3ccccc3O2)[nH][nH]1 (configuration not stated)	3	-0.5	9	-10	0.2%	0.9
O=C(c1cccc(S(=O)(=O)Nc2ccc(Br)cc2)c1)N1CCC1	2	-0.4	5	-4	-0.2%	2.3
COC(=O)c1ccc([N+](=O)[O-])c(CS(=O)(=O)c2ccc(Cl)cc2)c1	-10	3.1	-13	5	-0.1%	12
C/C(=N/NC(=O)Cn1nc2ccccc2n1)c1ccc(F)cc1	0	0.3	18	-23	-0.7%	-4.2
COC(=O)c1sc(NC(=O)c2ccc(OC)cc2OC)nc1C	-2	-0.2	-3	-6	-1.9%	-9.3
O=C1NC[C@H](CCCCN2C[C@H](Cc3ccc(O)cc3)N(CCc3ccc(O)cc3)C(=O)C2=O)N(CCc2ccc(O)cc2)C1=O	-4	-0.1	3	.	0.8%	.
COc1ccc(C(=O)CSc2nnc(CNC(=O)c3ccc(S(=O)(=O)N(C)C)cc3)o2)cc1	-2	1.1	-6	-7	3.2%	-3.0
COc1ccc(NC(=O)Nc2ccc(F)cc2F)cc1	6	0.3	-1	-3	-0.9%	-6.2
O=C(Nc1ccc(Oc2cccnc2)nc1)c1ccc(C(F)(F)F)cc1	-4	0.3	1	-4	-0.5%	2.9
C#CCOCCOCCOCCNc1nc(N2CCOCC2)nc(N2CCN(C(=O)CCCCCCCCCCNC(=O)[C@@H](CCC(=O)O)n3cc(CCCCCN)nn3)CC2)n1	-3	-0.6	-10	-10	0.2%	1.6
O=C(c1ccco1)N1CCN(Cc2nc3cc(Cl)ccc3c(=O)[nH]2)CC1	-4	-0.1	8	-4	0.4%	1.5
Cc1cccc(NC(=O)c2nc[nH]c2C(=O)N[C@@H](C)C(=O)OCc2ccccc2)c1	8	1.9	1	-3	8.0%	-0.8
O=C(COC(=O)C1CCCN1C(=O)C12CC3CC(CC(C3)C1)C2)c1ccc(Br)cc1 (configuration not stated)	6	1.6	-3	-2	5.3%	-7.8
O=C(NCc1nnnn1-c1ccc(F)cc1)C(=O)c1c[nH]c2ccccc12	-24	-0.6	-6	-8	2.9%	0.0
Fc1ccc(OCCCCCCN2CCCC2)cc1	-1	0.4	0	-18	?	-1.2
CN(C)C(CNC(=O)c1cccc(OC(F)F)c1)c1ccco1 (configuration not stated)	-7	-0.7	-1	-32	-0.9%	0.0
New compounds follow
SMILES	Six1-Eya2 inh	TRPML1 ag	CtBP-E1A blk	D2 potentiator	PINK1 modulator	D2 ag
COc1ccc(OC)c(/C=C/C(=O)NC2=NCCS2)c1	-8	-0.1	-3	-7	0.9%	1.1
O=C(O)c1cccc(-c2csc(C(O)(c3ccccc3)C(F)(F)F)n2)c1 (configuration not stated)	3	-0.7	-1	-1	-0.3%	-1.1
COc1cc2ccccc2cc1C(=O)N/N=C/c1cccnc1	20	0.8	.	-11	5.6%	-1.1
O=C1NC[C@H](Cc2ccc(O)cc2)N(C[C@@H]2CCCN2C[C@H](Cc2ccccc2)N2C[C@H](Cc3ccccc3)N(CC3CCCCC3)C(=O)C2=O)C1=O	10	-0.3	-10	.	3.4%	.
Cc1nc2c(n1O)CCC/C2=N\O	13	-0.1	6	0	-2.4%	-3.8
CC(C)c1ccc2oc(-c3cc(N)ccc3O)nc2c1	-16	-1.1	0	13	15%	-2.7
CCOC(=O)C1=C(C)N(C)C(=O)NC1c1cc2c(cc1Br)OCO2 (configuration not stated)	0	1.4	0	-46	0.3%	-5.2
Cc1ccc(C(=O)OCC(=O)N2c3ccccc3NC(=O)C2(C)C)cc1S(=O)(=O)N1CCCCC1	-7	-1.1	5	-6	6.8%	0.2
Cc1cc(C)nc(NC(=NCCc2c[nH]c3ccccc23)NC(=O)Nc2ccccc2)n1	-13	1.4	-7	-10	1.3%	-1.7
Cc1cc(C)n2nc(N)c(N=Nc3cccc(Cl)c3)c2n1	-19	3.9	-16	-2	16%	0.0
Cc1ccc(S(=O)(=O)N2CCOCC2)cc1NC(=O)COC(=O)CNC(=O)c1ccc(Cl)cc1Cl	2	0.4	-4	-6	2.7%	-0.5
CCOCCCNC(=O)C1(O)c2cc(Br)ccc2NC(=O)N1c1ccc(C)c(C)c1 (configuration not stated)	11	1.5	6	-1	-3.5%	7.5
COc1cn(-c2ccccc2)nc1C(=O)OCC(=O)Nc1ccc(C)c(C)c1	5	0.1	1	1	3.7%	0.5
CC(Nc1ccc(Br)cc1)C(=O)Nc1cccc(S(=O)(=O)N2CCOCC2)c1 (configuration not stated)	0	1.7	-11	-2	2.8%	-5.8
COc1ccc(CCNC(=O)CCC(=O)N2CCOc3ccc(C)cc32)cc1OC	4	-0.4	-12	-7	-0.7%	-5.3

Four structures out of the list, arranged by heavy-atom count, ascending.
SMILES	Six1-Eya2 inh	TRPML1 ag	CtBP-E1A blk	D2 potentiator	PINK1 modulator	D2 ag
CSCC(CO)NS(=O)(=O)c1ccc(C)cc1 (configuration not stated)	2	0.9	-6	0	2.8%	1.1
Cc1ccc(OS(=O)(=O)c2cn(C)c(=O)n(C)c2=O)cc1C	10	0.3	12	5	0.1%	0.5
O=C(NCc1nnnn1-c1ccc(F)cc1)C(=O)c1c[nH]c2ccccc12	-24	-0.6	-6	-8	2.9%	0.0
O=C1NC[C@H](CCCCN2C[C@H](Cc3ccc(O)cc3)N(CCc3ccc(O)cc3)C(=O)C2=O)N(CCc2ccc(O)cc2)C1=O	-4	-0.1	3	.	0.8%	.

Screening results as filed in PubChem.
